# Bioassay records from PubChem BioAssay.
# VDR inh – vitamin D3 receptor (human) inhibition; P11473; VDR-SRC2-3 peptide fluorescence polarization, 2 h; Potency, µM, without a hit: max response, negative = inhibition, most hits filed as inhibitors; 400,000 tested, 0.93% active; AID 504847; active means well fitted inhibition curve with a large enough effect; inconclusive means small, poorly fitted or top-dose-only effect, or another doubt; inactive means no such curve, though single readings can be large or run the other way; further: series mostly up to about 120 µM
# Target sequence (P11473 whole entry, looked up): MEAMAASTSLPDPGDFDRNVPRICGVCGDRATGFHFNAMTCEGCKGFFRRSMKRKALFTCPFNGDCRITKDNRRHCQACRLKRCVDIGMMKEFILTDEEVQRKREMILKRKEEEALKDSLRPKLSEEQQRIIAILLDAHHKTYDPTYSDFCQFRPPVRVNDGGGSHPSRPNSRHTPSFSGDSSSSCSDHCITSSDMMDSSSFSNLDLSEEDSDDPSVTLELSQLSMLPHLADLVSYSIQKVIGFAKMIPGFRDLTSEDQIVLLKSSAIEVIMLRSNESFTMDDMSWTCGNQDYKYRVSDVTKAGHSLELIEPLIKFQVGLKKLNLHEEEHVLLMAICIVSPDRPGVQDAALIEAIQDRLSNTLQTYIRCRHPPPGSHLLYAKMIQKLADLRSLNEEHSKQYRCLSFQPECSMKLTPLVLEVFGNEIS
#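 Inhibition of the VDR/SRC2-3 peptide interaction is quantified by fluorescence polarization. Compounds (23 nl, pintool) incubate with the reagents for 2 hours at ambient room temperature.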
# The depositor's hits bear a star; ? = inconclusive; & = joins results of further samples. On the % scale 0 is the no-effect control and ±100 the full control effect; potency means the concentration at half of the fitted maximal effect. Only part of the results is shown, so the mix of outcomes need not match the whole.
smiles	VDR inh
CCN(CC)C(=O)Cn1cc(C(=O)C(=O)NCc2ccccn2)c2ccccc21	3%
O=C(COC(=O)c1cc(S(=O)(=O)N2CCCC2)ccc1O)Nc1ccccc1Br	-19%
C[C@H](CO)N1C[C@H](C)[C@@H](CN(C)C(=O)Nc2ccc3c(c2)OCO3)Oc2c(NS(=O)(=O)c3cn(C)cn3)cccc2C1=O	-23%
COc1ccc(NC(=O)C2CCC(CNS(=O)(=O)c3cccc4nsnc34)CC2)cc1OC (stereo not drawn)	2%
N#CC1=C(N)C(C#N)(C#N)[C@H](c2ccoc2)[C@H]2CN(Cc3ccccc3)CC=C12	?
CN1CCN(S(=O)(=O)c2cccc(C(=O)Nc3ccccc3N3CCCCC3)c2)CC1	-6%
COc1ccc2cc(CN(Cc3ccco3)C(=S)NCC3CCCO3)c(=O)[nH]c2c1 (stereo not drawn)	6%
Cc1cccc(Sc2c(C=O)c3ccccc3n2C)c1	0%
COc1ccc(C(=O)OCC(=O)N(C)C2CCS(=O)(=O)C2)cc1S(=O)(=O)N(C)Cc1ccccc1 (stereo not drawn)	-15%
O=C(Nc1ccccc1C(=O)O)/C(=C/c1ccc([N+](=O)[O-])cc1)NC(=O)c1ccc(Br)o1	-11%
COc1cccc(CN(CC2CCCO2)S(=O)(=O)c2ccc(-n3cnnn3)c(OC)c2)c1 (stereo not drawn)	-12%
O=C(CCCC1=NS(=O)(=O)c2ccccc2N1)NCCc1ccc(Cl)cc1	-12%
COc1ccc(Cl)cc1NS(=O)(=O)c1cccc(C(=O)NCC(c2ccco2)N2CCCC2)c1 (stereo not drawn)	-12%
Cc1nc2nc(SCC(=O)NCCc3ccc(Cl)cc3)nn2c(C)c1Cc1ccccc1	17%
C#CCOc1c(Br)cc(C2C(C(=O)OC)=C(C)NC3=C2C(=O)c2ccccc23)cc1OCC (stereo not drawn)	6%
CCOc1ccc(S(=O)(=O)Nc2ccc(C(=O)N3CCCC3)cc2)cc1C(N)=O	-3%

# Look-ups from the entries so far.
# VDR inh result of O=C(CCCC1=NS(=O)(=O)c2ccccc2N1)NCCc1ccc(Cl)cc1 is entered as -12%
# VDR inh result of C#CCOc1c(Br)cc(C2C(C(=O)OC)=C(C)NC3=C2C(=O)c2ccccc23)cc1OCC (stereo not drawn) is entered as 6%
# VDR inh result of CCOc1ccc(S(=O)(=O)Nc2ccc(C(=O)N3CCCC3)cc2)cc1C(N)=O is entered as -3%

# The listing continues:
smiles	VDR inh
CCc1ccc(OCC(=O)N2CCN(c3ccccc3F)CC2)cc1	-17%
COc1ccc(-c2n[nH]c(=S)n2-c2ccc3c(c2)OCCO3)cc1	-20%
O=C(CSC1CCCCC1)Nc1ccccc1Br	1%
Cc1cccc(C(=O)N2CCc3cc(CNC(=O)c4ccco4)ccc32)c1	2%
CN1CCN(S(=O)(=O)c2ccc3[nH]cc(C(=O)O)c(=O)c3c2)CC1	2%
COc1ccc(-n2ncc3c2CC(C)(C)CC3NC(=O)CCc2c(C)noc2C)cc1 (stereo not drawn)	-9%
CCOC(=O)c1c(NC(=O)c2ccccc2Cl)sc2c1CCCC2	12%
CC(=O)Cn1c(CN2CCN(C(=O)c3ccco3)CC2)nc2c1c(=O)n(C)c(=O)n2C	15%
Cn1c(Cc2cccs2)nnc1SC/C=C/c1ccccc1	0%
COc1ccc(/C=N/N(c2ccccc2)c2ccccc2)cc1O	12%
CCOC(=O)c1nnn(-c2nonc2N)c1-c1ccc(OC)cc1	-6%
CC1CCN(S(=O)(=O)c2cccc(-c3cn4cc(Cl)ccc4n3)c2)CC1	13%
O=C(CC1SC(N2CCCC2)=NC1=O)Nc1ccc(C(=O)N2CCCC(C(F)(F)F)C2)cc1 (stereo not drawn)	-9%
CC(NC(=O)/C=C/c1ccccc1[N+](=O)[O-])C1CC2CCC1C2 (stereo not drawn)	-19%
COc1ccc(C)cc1Nc1n[n+](C)c(-c2ccc(O)cc2O)s1	10%
O=C1C2CCCN2C(=O)N1CCCCN1CCN(c2cccc(C(F)(F)F)c2)CC1 (stereo not drawn)	-5%
CCc1ccc(NC(=O)CSc2nnc(CNC(=O)c3ccc(OC)cc3)o2)cc1	-3%
O=C(c1ccc(F)cc1)C1CCN(C(=O)NC2CCCCC2)CC1	-7%
CCOCCCNC(=S)N(Cc1ccco1)Cc1cc2cc3c(cc2[nH]c1=O)OCCO3	-11%
Cc1c(OCC(=O)NCCCn2ccnc2)ccc2c3c(c(=O)oc12)CCC3	13%
COc1ccc(N(C)S(=O)(=O)c2cccc3cccnc23)c(OC)c1	4%
COc1ccc(N=CC2=C(O)CC(C)(C)CC2=O)cc1	7%
O=C(CN1CCc2ccccc2C1)Nc1ccccc1C(F)(F)F	6%
O=C(Nc1ccccc1Oc1ccccc1)c1cc([N+](=O)[O-])ccc1Cl	6%
Cc1ccc(N2CC(C(=O)Nc3cccc(F)c3)CC2=O)cc1 (stereo not drawn)	-8%
N#C/C(C(N)=O)=C1/SC(Cc2ccc(F)cc2)C(=O)N1c1ccccc1 (stereo not drawn)	-10%
O=C1CCCC/C=C\C[C@H](CC(=O)N(CCO)Cc2ccccc2)C(=O)N[C@@H](Cc2ccccc2)CO1	-6%
CCCOP(=O)(OCCC)C(Nc1ccc(C(=O)O)cc1)c1ccccc1 (stereo not drawn)	-11%
CCC(=O)Nc1ccc(-c2csc(NNC(C)=O)n2)cc1	2%
CCOC(=O)N1CCN(C(=O)CSc2nc3nc(C)cc(C)n3n2)CC1	-3%
CSCCC(NC(=O)c1ccccc1)C(=O)NCc1ccc(S(N)(=O)=O)cc1 (stereo not drawn)	-7%
CC1Cc2cc(S(=O)(=O)CCC(=O)Nc3ccc(F)cc3)ccc2N1C(=O)C1CC1 (stereo not drawn)	-5%
COc1ccc(S(=O)(=O)Nc2ccc(C)cn2)cc1	-4%
CC(C)c1ccc(NC2CCCN(C(=O)CC3CCCC3)C2)cc1 (stereo not drawn)	11%
Cc1cc(Cl)ccc1C(=O)C1CCCN(C(=O)c2n[nH]c3c2CCCC3)C1 (stereo not drawn)	-11%
CN(C(=O)c1ccccc1F)C(c1ccccc1)c1ccccc1	2%
C=CCOc1cccc(/C=C/c2nc3ccccc3c(=O)[nH]2)c1	9%
Cc1ccc(C(=O)Oc2cccc(NC(=O)c3ccccc3)c2)cc1C	-22%
CCc1ccc(N2CC(C(=O)OCc3nc4ccsc4c(=O)[nH]3)CC2=O)cc1 (stereo not drawn)	25%
COc1ccc(C2NC(=O)C(=O)/C2=C(\O)c2ccc(Cl)cc2)cc1OC (stereo not drawn)	-21%
COc1ccc(NC(=S)NCCc2c[nH]c3ccccc23)cc1	-14%
CC(=O)Nc1cc(C(=O)O)ccc1S(=O)(=O)c1ccc(Cl)cc1	15%
CC(=O)c1cccc(S(=O)(=O)NCCc2csc3nc(-c4ccc(F)cc4)nn23)c1	1%
FC(F)(F)c1cnc(NNC(=S)Nc2ccccc2Cl)c(Cl)c1	?
CC1Cc2cc(/C(O)=C3/C(=O)C(=O)N(CCCn4ccnc4)C3c3ccc(F)cc3)ccc2O1 (stereo not drawn)	-9%
COc1ccc(S(=O)(=O)NCCc2sc(-c3ccccc3)nc2C)cc1F	8%
Cc1cc(C(=O)NNC(=O)c2ccc(C(F)(F)F)cc2)no1	12%
COC(=O)COc1ccc(S(=O)(=O)NCCC2=CCCCC2)cc1Cl	0%
O=C(COC(=O)c1cccnc1Cl)NCc1ccc(F)cc1	-9%
Cc1cccc(NC(=S)NC(=O)c2ccco2)n1	1%
NC(=O)c1ccc(NC(=O)c2ccc(COc3ccccc3Br)cc2)cc1	20%
CC(=O)N1CCC(C(=O)NCCOc2cccc(C)c2)CC1	-5%
O=C(CNc1cccc(S(=O)(=O)N2CCOCC2)c1)Nc1cccc(Br)c1	-5%
COC(=O)C(CCCN1C(=O)c2ccccc2C1=O)(NC(C)=O)c1nn[nH]n1 (stereo not drawn)	-16%
O=C(O)c1cc(S(=O)(=O)O)ccc1O	-8%
CCOc1ccc(NC(=O)CCS(=O)(=O)c2cc3c4c(c2)CCN4C(=O)CC3)cc1	6%

# Structures above with an NH in an aromatic ring:
smiles	VDR inh
COc1ccc2cc(CN(Cc3ccco3)C(=S)NCC3CCCO3)c(=O)[nH]c2c1 (stereo not drawn)	6%
COc1ccc(-c2n[nH]c(=S)n2-c2ccc3c(c2)OCCO3)cc1	-20%
CN1CCN(S(=O)(=O)c2ccc3[nH]cc(C(=O)O)c(=O)c3c2)CC1	2%
CCOCCCNC(=S)N(Cc1ccco1)Cc1cc2cc3c(cc2[nH]c1=O)OCCO3	-11%
Cc1cc(Cl)ccc1C(=O)C1CCCN(C(=O)c2n[nH]c3c2CCCC3)C1 (stereo not drawn)	-11%
C=CCOc1cccc(/C=C/c2nc3ccccc3c(=O)[nH]2)c1	9%
CCc1ccc(N2CC(C(=O)OCc3nc4ccsc4c(=O)[nH]3)CC2=O)cc1 (stereo not drawn)	25%
COc1ccc(NC(=S)NCCc2c[nH]c3ccccc23)cc1	-14%
COC(=O)C(CCCN1C(=O)c2ccccc2C1=O)(NC(C)=O)c1nn[nH]n1 (stereo not drawn)	-16%

# Following part.
smiles	VDR inh
O=C(CN1C(=O)CNC1=O)Nc1ccc(Cl)cc1	-12%
CCC1(c2ccc(F)cc2)NC(=O)N(CC(=O)c2cc(C)n(C3CC3)c2C)C1=O (stereo not drawn)	-20%
CC(=O)c1ccc(OC(C)C)c(CSc2nc(O)cc(=O)[nH]2)c1	-4%
O=S(=O)(NCc1cccs1)c1ccc(Cl)s1	16%
COC(=O)C(C)Sc1nnc(SC(C)C(=O)OC)s1 (stereo not drawn)	-5%
COc1ccc(NC(=O)c2c3c(nc4ccccc24)CCC3)cc1S(=O)(=O)N1CCOCC1	1%
COc1cccc(NC(=O)CSc2nc(O)c(C/C=C/c3ccccc3)c(=O)[nH]2)c1	-20%
CCN1CCN(C(=O)COCc2cc(-c3ccc4c(c3)OCO4)on2)CC1	?
O=C(OCc1nnc(-c2ccc(Cl)cc2)o1)c1ccncc1	1%
Cc1ccc(S(=O)(=O)NCC(=O)NCC(=O)NCCc2ccccc2F)cc1C	-12%
COc1ccc(C2=NOC(C)(c3nnc(-c4ccc(Cl)cc4)o3)C2)cc1 (stereo not drawn)	-19%
COc1cc(/C=C/C(=O)NC(=O)c2ccccc2O)ccc1O	1%
COCc1cc(C)n(CC(=O)OC)c(=O)c1C#N	0%
Cc1noc(C)c1S(=O)(=O)Nc1ccc2c(c1)C(=O)N([C@H](C)CO)C[C@@H](C)[C@@H](CN(C)Cc1ccc3c(c1)OCO3)O2	13%
Cc1cc(C)nc(NS(=O)(=O)c2ccc(NC(=O)C(C)C)cc2)n1	11%
Cc1c(C=O)c2ccccc2n1CCOc1ccccc1F	3%

# Rewritten field by field: 2 of the compounds above
> COc1ccc(C2=NOC(C)(c3nnc(-c4ccc(Cl)cc4)o3)C2)cc1 (stereo not drawn)
  VDR inh: -19%
> COc1cc(/C=C/C(=O)NC(=O)c2ccccc2O)ccc1O
  VDR inh: 1%

# (listing goes on)
smiles	VDR inh
Cc1cccc(OCCCCn2c(CO)nc3ccccc32)c1	-17%
Cc1ccc(-c2cc(C(=O)NCCCN3CCOCC3)c3ccccc3n2)cc1	2%
O=C(/C=C/c1ccco1)N1CCc2ccccc21	1%
C[C@@]12C(=O)OC(=O)[C@@]1(C)[C@@H]1CC[C@@H]2O1	-9%
O=C1c2ccc(-c3ccc(F)cc3OCc3ccccc3)cc2S(=O)(=O)c2cccc(C(=O)N3CCCC3)c21	-14%
CN1C(=O)/C(=C/c2ccco2)SC1=Nc1cccc(C(=O)O)c1	0%
COc1ccc(-n2c(-c3ccc(Br)cc3)c[n+]3c2CCC3)cc1	13%
CCn1cc2nc(SCC(=O)Nc3ccc(OC)c(Cl)c3)n(Cc3ccc(OC)cc3)c(=O)c2n1	-3%
CC1CN(Cc2ccccc2)C(=S)N(c2ccccc2)C1=O (stereo not drawn)	-7%
N#CC1=C(N)OC(c2ccccc2)=C(C#N)C1c1ccc2c(c1)OCO2 (stereo not drawn)	3%
CN(CCc1ccc(Cl)c(Cl)c1)CCN1CCCCCC1	4%&-1%
COc1ccc(OCC(=O)Nc2c(C(=O)N(CCN(C)C)Cc3ccco3)oc3ccccc23)cc1	8%
OCC1CCCCN1CC(O)COC(c1ccc(F)cc1)c1ccc(F)cc1 (stereo not drawn)	-5%
NC(=O)c1ccc(-n2nnnc2SCC(=O)Nc2ccccc2F)cc1	-18%
O=C(Nc1ccc(C(=O)N2CCCCC2)cc1)C1CCCCC1	18%
O=c1[nH]c(CNCc2cccnc2)nc2ccccc12	5%
COc1ccccc1N=Cc1c(O)c2ccccc2oc1=O	3%
CCN(C(=O)CN1C(=O)S/C(=C\c2ccc(Cl)cc2)C1=O)C1CCS(=O)(=O)C1 (stereo not drawn)	-28%
CCOc1cc(S(=O)(=O)n2nc(C)cc2C)ccc1F	-1%
O=S(=O)(c1ccccc1)C(/C=N\O)/C=C/c1ccccc1 (stereo not drawn)	-18%
S=c1[nH]nc(-c2ccncc2)n1/N=C/c1cn(-c2ccccc2)nc1-c1ccccc1	7%
O=C(N=C1SC2CS(=O)(=O)CC2N1c1ccc(F)cc1)C1CCCCC1 (stereo not drawn)	2%
O=C1C(=O)N(CCCN2CCOCC2)C(c2ccc(Cl)cc2)/C1=C(\O)c1ccc2c(c1)OCCO2 (stereo not drawn)	?
CCC(C)(C(=O)NC1CCCC1)N(Cc1cccs1)C(C)=O (stereo not drawn)	-10%
CC(C)C(NC(=O)Cc1ccccc1)C(=O)N1CCN(c2cccc(Cl)c2)CC1 (stereo not drawn)	-16%
O=S(=O)(c1ccc(Cl)nc1)N1CCCc2ccccc21	-8%
Cn1c(=O)oc2cc(S(=O)(=O)NC3CCN(Cc4ccccc4)CC3)ccc21	-4%
